# LASV entry inh: inhibitors of Lassa virus binding or cell entry; 300,000 tested, 1.2% active; Potency, µM (titrated, usually from 37.9 µM), for inactives: at the top dose activity change, negative = inhibition, most hits filed as inhibitors; Lassa virus pseudotype entry inhibition, cell reporter; control for the full effect not named in the record; AID 540256; active means well fitted inhibition curve with a large enough effect; inconclusive means small, poorly fitted or top-dose-only effect, or effect the other way; inactive means flat fitted curve, though single readings scatter; tested in HEK293 cells; note: % is set by controls: 0 for no effect and ±100 for the full control effect; nearly all actives have a fitted effect of over 50% in size; luciferase read-out
# Cruzain noTriton: blocks cruzain activity in detergent-free assay; purified cruzain, Z-FR-AMC fluorescence, no detergent; AID 1476; Potency, µM, without a hit: max response, negative = inhibition, actives largely listed as inhibitors; P25779; 200,000 tested, 2.3% active;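 note: plate controls were enzyme without inhibitor for no effect and buffer without enzyme for full effect; nearly all actives have a fitted effect of over 40% in size; top concentration of the series not given in the record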
# Target sequence (P25779 123-467 limits assumed): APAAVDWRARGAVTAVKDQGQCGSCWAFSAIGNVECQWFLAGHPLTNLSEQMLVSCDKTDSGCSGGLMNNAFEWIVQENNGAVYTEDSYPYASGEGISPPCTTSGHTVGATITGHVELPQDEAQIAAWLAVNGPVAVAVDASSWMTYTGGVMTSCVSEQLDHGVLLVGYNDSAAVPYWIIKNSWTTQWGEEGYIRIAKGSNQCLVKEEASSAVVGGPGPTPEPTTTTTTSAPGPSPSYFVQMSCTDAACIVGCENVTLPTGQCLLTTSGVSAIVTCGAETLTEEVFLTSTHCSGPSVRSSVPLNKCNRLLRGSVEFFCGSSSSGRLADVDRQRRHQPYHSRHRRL
#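 Purified cruzain at 1.5 nM, pre-incubated 15 min with compound at room temperature in 100 mM sodium acetate pH 5.5, 5 mM DTT, 0.00005% Triton X-100. Reaction started with 2 uM Z-FR-AMC; AMC fluorescence increase over 60 s gives rate.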
# Marburg entry inh: Marburg virus entry inhibition | Marburg virus pseudotyped entry inhibition, cell reporter; control for the full effect not named in the record; about a third of the inactives were read at about 46 µM | AID 540276 | 300,000 tested, 1.8% active | Potency, µM (top dose mostly 37.8 µM), without a hit: at the top dose activity change, negative = inhibition, hits mostly inhibitors; active = well fitted inhibition curve with a large enough effect; inconclusive = small, poorly fitted or top-dose-only effect, or effect the other way; inactive = flat fitted curve, though single readings scatter; tested in HEK293 cells; about a fifth of its hits are not listed in these tables; note: % is set by controls: 0 for no effect and ±100 for the full control effect; luciferase read-out
# 2A StopGo: FMDV 2A StopGo reporter, luciferase signal; human cells with a luciferase reporter of 2A StopGo recoding; control for the full effect not named in the record; Potency, µM (titrated, usually from 57.9 µM), for inactives: top-dose signal change, negative = less light; 410,000 tested, 1.2% active; active = well fitted falling curve with a large enough effect; inconclusive = small, poorly fitted or top-dose-only effect; inactive = no such curve, though single readings can be large or run the other way; tested in HEK293T cells; note: % is set by controls: 0 for no effect and ±100 for the full control effect; nearly all actives have a fitted effect of over 45% in size; luciferase light after 4 h
# RE007 growth inh: less growth of the S. pombe RE007 Vpr strain; S. pombe RE007 Vpr strain, BacTiter-Glo ATP luminescence, 24 h; control for the full effect not named in the record; Potency, µM (highest dose often 92.2 µM), without a hit: at the highest dose activity change, negative = less growth; 360,000 tested, 0.21% active; AID 651644; active = well fitted falling curve with a large enough effect; inconclusive = small, poorly fitted or top-dose-only effect; inactive = no such curve, though single readings can be large or run the other way;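 note: % is set by controls: 0 for no effect and ±100 for the full control effect; nearly all actives have a fitted effect of over 50% in size; the assay follows cell death caused by Vpr and the record does not say whether a fall means rescue or toxicity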
#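 Fission yeast RE007 carrying one integrated HIV-1 vpr copy, seeded at OD 0.01 in PMG+AL medium with 23 nL pinned compound. Grown 24 h at 30 degrees; viability read by BacTiter-Glo luminescence after 5 min.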
# SARS PLP yeast: blocks SARS-CoV papain-like protease in a yeast assay | 330,000 tested, 0.19% active | S. cerevisiae expressing SARS-CoV PLpro, growth rescue; control for the full effect not named in the record | Potency, µM (series often up to 32.9 µM), for inactives: at the highest dose activity, positive = growth rescue; active means well fitted rising curve with a large enough effect; inconclusive means small, poorly fitted or top-dose-only effect; inactive means no such curve, though single readings can be large or run the other way; note: 0% is about no effect; nearly all actives have a fitted effect of over 55% in size; growth read by luminescence after 48 h
# Cruzain Triton: cruzain (T. cruzi) inhibition with detergent; 200,000 tested, 0.43% active; purified cruzain, Z-FR-AMC fluorescence, 0.01% Triton; Potency, µM, for the others: max response, negative = inhibition, actives largely listed as inhibitors;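 note: plate controls were neutral wells for no effect and buffer without enzyme for full effect; nearly all actives have a fitted effect of over 40% in size; top concentration of the series not given in the record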
#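 Enzyme 1.5 nM, Z-FR-AMC 2 uM, NaOAc 100 mM pH 5.5, DTT 5 mM, Triton X-100 0.01%; 15 min RT compound preincubation; kinetic ex360/em450, 60 s delta.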
# NS1 inh: influenza NS1 inhibition; S. cerevisiae slowed by influenza A NS1, growth recovery by OD600; Potency, µM (series often up to 46.1 µM), without a hit: at the top dose activity, positive = more growth; 270,000 tested, 0.4% active; AID 2326; active means well fitted rising curve with a large enough effect; inconclusive means small, poorly fitted or top-dose-only effect; inactive means no such curve, though single readings can be large or run the other way; note: nearly all actives have a fitted effect of over 50% in size
#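 A cell-based growth assay was used: compounds that relieve NS1-induced slow growth of budding yeast raise OD600. Assay medium was yeast nitrogen base with ammonium sulphate and -URA supplement, pH 6.0, with 2% galactose.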
# * hit, by the source's call; ? = inconclusive; nt = no result given; & = joins results of further samples; [ ] = remark or other dose. Unless noted, calls come from the whole dose curve; as a rule, active = well fitted curve in the direction sought with a large enough effect; inconclusive = small, poorly fitted or top-dose-only effect, or another doubt; inactive = no such curve, though single readings can be large; an effect the other way counts as inactive or inconclusive. Potency is the fitted concentration of half-maximal effect.
SMILES,LASV entry inh,Cruzain noTriton,Marburg entry inh,2A StopGo,RE007 growth inh,SARS PLP yeast,Cruzain Triton,NS1 inh
CCOC(=O)C1=C(C)NC(=O)CC1c1ccccc1 (configuration not stated),?,-5.1%,-13.7%,-0.9%,14.5%,17.1%,3.6%,7.3%
CN(C(=O)COc1cccc(Br)c1)C1CCS(=O)(=O)C1 (configuration not stated),-2.4%,-3.9%,5.5%,nt,-19.2%,3.3%,-4.0%,0.6%
c1cc[n+](CCC[n+]2ccccc2)cc1,?,nt,-0.7%[46.1 µM],13.8%,4.3%,0.4%,nt,-0.8%
O=C(Nc1ccc2c(c1)OCCO2)C1CCN(S(=O)(=O)c2ccc(Br)s2)CC1,-24.0%,-15.9%,?,?,-6.8%,1.1%,4.8%,-34.2%
Cc1nonc1C(=O)N1CCCC(N2CCN(c3ccc(F)cc3)CC2)C1 (configuration not stated),-15.2%,nt,5.0%,-26.4%,-7.0%,-4.4%,nt,-7.2%
C=CCN1CCN(C(CCC)c2nnnn2Cc2ccco2)CC1 (configuration not stated),14.7%[46.1 µM],nt,?,-18.4%,-20.9%,-3.9%,nt,nt
COc1cc(NC(=O)COc2ccc(Cl)cc2)ccc1NC(=O)C(C)C,13.2%,nt,-4.7%[46.1 µM],-17.4%,-0.8%,0.9%,nt,-81.2%
Cc1ccc(CNc2ncnc3c2c(-c2ccccc2)cn3-c2cccc(Cl)c2)cc1,5.5%[46.1 µM],3.3%,nt,-25.6%,nt,nt,0.2%,nt
Cc1cc(OC(=O)c2ccc(S(=O)(=O)N3CCCCC3)cc2)c([N+](=O)[O-])c(=O)[nH]1,-0.3%[46.1 µM],nt,26.0%[46.1 µM],-7.4%,1.6%,0.2%,nt,nt
CN1CCN2c3ccccc3CC3(C(=O)N(C)C(=O)N(C)C3=O)C2C1 (configuration not stated),2.4%[46.1 µM],nt,?,48.6%[activator],1.4%,-0.4%,nt,-0.5%
O=C(Nc1cccc(Cl)c1)C1=CC=CN2CCS(=O)(=O)N=C12,2.6%[46.1 µM],nt,-13.1%[46.1 µM],8.3%,-10.3%,-1.6%,nt,nt
COc1cc2c(cc1OC)C(=O)CCS2,-1.8%,11.2%,-2.1%,-5.3%,-0.4%,-1.4%,-0.7%,-11.8%
Oc1ccc(/C=N/N=C(c2ccccc2)c2ccccc2)c(O)c1O,?,-3.1%,?,-6.2%,?,-3.9%,-22.3%,-3.9%
CN(C)S(=O)(=O)c1cccc(NC(=O)c2ccc(S(=O)(=O)N3CCCCC3)cc2)c1,-3.1%,nt,?,-29.1%,-7.4%,4.3%,nt,nt
COc1cc(S(=O)(=O)NCC2OCCc3ccccc32)ccc1-n1cnnn1 (configuration not stated),-14.1%,-3.6%,-26.5%,0.0%,3.5%,-2.4%,3.0%,1.4%
Cn1c(SCc2cc(=O)c3cc(Cl)ccc3[nH]2)nnc1-c1ccccc1,8.7%[46.1 µM],2.1%,nt,?,nt,nt,4.6%,nt
COC(=O)c1cc(NC(=O)C2CC(=O)NC(=NCc3ccc(OC)cc3)S2)cc(C(=O)OC)c1 (configuration not stated),1.5%,nt,?,-6.7%,4.2%,0.2%,nt,5.3%
COc1ccccc1Cn1c(-c2ccco2)nc2nc3ccccc3nc21,?,nt,0.4%,-12.4%,1.4%,nt,nt,-30.7%
Cc1onc(-c2ccccc2)c1C(=O)NCc1ccc(F)cc1,19.3%,nt,8.1%,-0.8%,17.1%,nt,nt,nt
O=C(CCc1ccccc1)NCc1cccnc1,4.2%,-4.2%,26.3%[46.1 µM],8.4%,-9.5%,1.2%,0.0%,13.0%
CCCCN(C)CCNC(=O)C1CCN(S(=O)(=O)c2cccc3nsnc23)CC1,nt,nt,nt,-18.1%,0.2%,-1.6%,nt,7.3%
CCOC(=O)c1ccc(N2C(=O)C3ON(c4ccccc4)C(c4ccco4)C3C2=O)cc1 (configuration not stated),nt,-28.2%,nt,-19.3%,3.8%,-0.4%,-7.3%,-25.5%
Cc1csc2nc(COC(=O)c3cccc(NC(=O)COc4ccccc4Cl)c3)cc(=O)n12,-28.3%[46.1 µM],-0.3%,nt,-24.3%,nt,nt,-2.4%,nt
COc1ccc(C(CNC(=O)COc2ccc(C)cc2)N2CCCCC2)cc1 (configuration not stated),1.3%[46.1 µM],-0.9%,6.5%[46.1 µM],-3.9%,nt,nt,4.0%,nt
CCOc1ccc(C(=O)NCC(=O)NCCSc2ccc(Br)cc2)cc1OCC,-16.5%,nt,?,-26.6%,-15.1%,nt,nt,nt

# The list goes on, starting with the last four of the part before.
SMILES,LASV entry inh,Cruzain noTriton,Marburg entry inh,2A StopGo,RE007 growth inh,SARS PLP yeast,Cruzain Triton,NS1 inh
CCOC(=O)c1ccc(N2C(=O)C3ON(c4ccccc4)C(c4ccco4)C3C2=O)cc1 (configuration not stated),nt,-28.2%,nt,-19.3%,3.8%,-0.4%,-7.3%,-25.5%
Cc1csc2nc(COC(=O)c3cccc(NC(=O)COc4ccccc4Cl)c3)cc(=O)n12,-28.3%[46.1 µM],-0.3%,nt,-24.3%,nt,nt,-2.4%,nt
COc1ccc(C(CNC(=O)COc2ccc(C)cc2)N2CCCCC2)cc1 (configuration not stated),1.3%[46.1 µM],-0.9%,6.5%[46.1 µM],-3.9%,nt,nt,4.0%,nt
CCOc1ccc(C(=O)NCC(=O)NCCSc2ccc(Br)cc2)cc1OCC,-16.5%,nt,?,-26.6%,-15.1%,nt,nt,nt
Cc1ccc(OCc2cc(C(=O)N(C)CCn3ccnc3C)no2)cc1C,-3.1%,nt,6.5%,6.6%,-5.0%,nt,nt,nt
COc1ccc(Nc2nc(-c3sc(N)nc3C)cs2)cc1,1.2%,15.8µM*,21.4%,-14.1%,?,-1.5%,15.8µM*,?
COC(=O)c1ccc(OC(C)C(=O)c2ccc(C)cc2)cc1 (configuration not stated),3.9%,6.8%,1.5%,0.0%,-16.7%,7.7%,-4.8%,0.9%
CCCCn1c(SCC(=O)OCC)nnc1-c1ccoc1C,-0.2%,-9.3%,17.0%,0.5%,0.8%,7.6%,0.8%,?
CCCn1nnc(NC(=S)NC(=O)C(C)(C)C)n1,?,-9.5%,?,35.3%[activator],-21.4%,3.7%,2.7%,-2.6%
CCN(CC)c1ccc(NC(=O)COc2ccc(C)cc2)cc1,0.8%,-10.1%,0.3%,nt,1.3%,-2.0%,-3.9%,-116.7%
CCOC(=O)c1sc(=S)n(C)c1NC(=O)c1cccc(Br)c1,-24.5%,nt,-22.1%,?,-14.7%,4.6%,nt,8.4%
CN1CCC(N(C)C(=O)CCc2nc3ccccc3c(=O)[nH]2)CC1,?,-6.5%,14.8%,20.3%,14.0%,-1.4%,7.3%,19.0%
COCCCn1c(SCC(=O)N2CCOCC2)nc2ccccc2c1=O,-23.4%,nt,-2.4%,14.2%,-18.5%,-12.8%,nt,-0.9%
Cc1cc(NC(=O)c2ccc(Br)cc2)nc(C)n1,16.9%,nt,-2.2%,-2.5%,-1.3%,0.9%,nt,-5.2%
COc1ccc(NC(=O)Cn2ncc3c2-c2ccccc2OC3)cc1Cl,nt,-7.5%,-21.1%[46.1 µM],-26.5%,nt,nt,-1.0%,nt
COc1cc(CN2CCCN(C)CC2)cc([N+](=O)[O-])c1O,14.4%,nt,3.2%,-10.4%,-18.2%,2.2%,nt,4.8%
O=C(Nc1ccccc1-c1ccccc1)c1ccco1,-17.0%,7.7%,-5.1%,-3.9%,-13.2%,-3.3%,0.8%,-16.1%
CCNS(=O)(=O)c1ccc(NC(=O)c2ccc(Cn3cc([N+](=O)[O-])cn3)o2)cc1,-21.1%[46.1 µM],nt,-2.1%[46.1 µM],-0.9%,-5.0%,0.1%,nt,nt
CC(C(=O)Nc1ccccc1)N(C)Cc1cccs1 (configuration not stated),-4.5%,nt,-2.4%[46.1 µM],-7.2%,-9.4%,-2.0%,nt,-48.1%
COc1ccc(S(=O)(=O)C(C#N)c2nc3ccccc3nc2N2CCCC(C)C2)cc1 (configuration not stated),10.1%,?,2.2%&2.2%,-11.3%,-13.0%,-21.7%,-2.6%,-4.4%
CCc1ccccc1NC(=O)C(C)n1nc(-c2ccc(C)c(C)c2)ccc1=O (configuration not stated),-5.4%[46.1 µM],24.6%,?,-17.9%,nt,nt,-3.8%,nt
COC(=O)C1=C(CS(=O)(=O)c2ccc(OC)cc2)NC(=O)NC1c1ccccc1 (configuration not stated),nt,nt,nt,-16.4%,21.2%,4.0%,nt,-2.3%
CC1CN(C(=O)CCC(=O)NCc2ccccn2)c2ccccc2O1 (configuration not stated),nt,nt,nt,-24.2%,-1.8%,1.9%,nt,9.3%
Cc1ccc(CNc2nc3c(S(=O)(=O)c4ccccc4)nnn3c3ccsc23)cc1,0.4%[46.1 µM],16.4%,nt,-4.3%,nt,nt,0.6%,nt
COc1cccc(CNC(=O)C(=O)NCC2CCCO2)c1 (configuration not stated),1.6%,5.4%,3.0%,-11.8%,11.1%,3.8%,-1.3%,2.8%
O=C(NCCCO)C(=O)Nc1cc2c3c(c1)CCN3C(=O)CC2,nt,nt,nt,-4.0%,10.7%,9.1%,nt,16.9%
NS(=O)(=O)c1ccc(CCNC(=O)/C=C/c2cccc([N+](=O)[O-])c2)cc1,-5.1%[46.1 µM],nt,-15.5%[46.1 µM],-13.7%,-0.6%,-0.6%,nt,0.9%
Cc1nn2c(-c3cccc(NC(=O)c4ccc(Cl)cc4)c3)nnc2c2ccccc12,-0.4%[46.1 µM],-4.4%,-3.3%[46.1 µM],-9.6%,nt,nt,-1.8%,nt
COc1ccc(OC)c(NC(=O)CSc2nc(C)cs2)c1,0.8%,2.8%,-8.9%,nt,3.3%,2.6%,-4.5%,-6.8%
N#CC(=C(\N)Sc1ccccc1N)/C(C#N)=C(/N)Sc1ccccc1N,nt,-23.8%,?,nt,nt,nt,-6.4%,0.0%
O=C1N2CCCc3cccc(c32)C12Nc1ccccc1S2 (configuration not stated),23.7%,-3.0%,14.8%,9.4%,2.1%,-7.7%,-0.2%,-36.8%
